# LANA-H2B inh: blockers of LANA interaction with H2A/H2B – biochemical, FP readout, HTS, primary screen. 320,000 compounds, 0.6% hits. cell-free LANA-H2A/H2B peptide, fluorescence polarization. inhibition, % (test concentration not listed). AID 2629, 2010; in the data active = inhibition mostly above about 10%, no sharp cut-off; inactive = mostly below about 6.7%;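 also: stock transfer was 7.5 nL into about 10 µL; 0% = median of vehicle wells and 100% = median of positive control wells; one replicate is shown; the record names a cut of 25% in any replicate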
# Beta cell apopt: inhibitors of cytokine-induced beta cell apoptosis, primary screen, luminescence. 300,000 compounds, 0.8% hits. protection from apoptosis, % (test concentration not listed). AID 435005, 2010. INS-1E cytokine-induced death, ATP luminescence, 48 h; percent of positive-control rescue, neutral wells zero;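 active = all replicates at 75% or more, or half of them and the mean; inconclusive = half reach 75% but not the mean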;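 also: 0% = cytokine-treated negative control wells and 100% = positive control rescue; higher means more ATP so stronger rescue from cytokine killing; wells of about 40 µL received 100 nL stock; the first replicate is given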
# B2AR ag: beta2AR agonists driving receptor internalization, primary screen, cell-based, FAP fluorogen, flow cytometry | response, % (concentration not given with the values) | Am2.2-beta2AR cells; reference of the scale not given here | 340,000 compounds, 0.43% hits | Beta-2 adrenergic receptor (Homo sapiens), P07550;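 active = response above a set limit, near 3 SD of response in nonfluorescent compounds, cut at about 42% in these data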;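 also: stock transfer was 100 nL into about 11 µL; a reference agonist was the positive control; negative values mostly stem from fluorescent compounds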
# Target sequence (P07550 whole entry, looked up): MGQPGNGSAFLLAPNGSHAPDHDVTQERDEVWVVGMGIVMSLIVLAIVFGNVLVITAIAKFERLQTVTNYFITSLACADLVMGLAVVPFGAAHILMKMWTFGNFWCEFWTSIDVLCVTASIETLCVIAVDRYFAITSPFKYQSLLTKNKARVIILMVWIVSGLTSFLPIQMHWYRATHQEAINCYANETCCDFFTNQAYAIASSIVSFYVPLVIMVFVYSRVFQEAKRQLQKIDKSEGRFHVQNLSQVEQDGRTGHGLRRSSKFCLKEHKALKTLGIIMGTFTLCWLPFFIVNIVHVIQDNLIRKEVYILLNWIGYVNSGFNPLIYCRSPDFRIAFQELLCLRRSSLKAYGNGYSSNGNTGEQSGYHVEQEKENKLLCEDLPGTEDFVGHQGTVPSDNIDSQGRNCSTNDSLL
# rRNA inh HTS: reduced GFP signal of wild-type E. coli, primary screen, bacterial rRNA inhibitor project, GFP/RFP fluorescence, OD600, single point | E. coli WT GFP vs humanized-ribosome RFP mutants, 24 h; active compounds read low; DMSO median 0, no signal -100 | GFP signal change (wild-type ribosome), % (test concentration not listed) | 350,000 compounds, 1.6% hits | AID 720706, 2013;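 active = significant combined selectivity score with lowered wild-type GFP, culture density cut under 30%, mutant RFP and density less affected; inactive = any of these conditions unmet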; also: one replicate is shown; some compounds called inactive have numbers as strong as hits
# Bfl-1 A1 inh: caspase 3/7 activation in MEF A1-2A-BIM cells, primary screen, A1 inhibitor project, cell-based, luminescence, HTS | caspase activation, % (concentration not given with the values) | AID 2462, 2010 | 330,000 compounds, 0.066% hits | Caspase-Glo 3/7 luminescence, 3 h; percent of clofoctol response, vehicle zero;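 active = over half of replicate activation scores above 10%, or exactly half above 10 with the replicate mean above 10; inconclusive = replicate mean below 10 yet half the replicates above 10; inactive = over half of replicates below 10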;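 also: wells of about 30 µL received 50 nL stock; many hits fall short of the cut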
# Calb FLC: C. albicans growth inhibition with fluconazole, primary screen, CaCi-2 strain, Alamar Blue fluorescence. C. albicans CaCi-2 (fluconazole-resistant clinical isolate) + fluconazole, 48 h. growth inhibition, % (test concentration not listed). 300,000 compounds, 0.57% hits;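 active = most replicates above 75%; inconclusive = exactly half above 75%; inactive = most below 75%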;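 also: all wells also contain fluconazole at 8 µg/ml as a sub-toxic cotreatment; 0% = median of DMSO wells and 100% = median of geldanamycin control wells; wells of about 8 µL received 7.5 nL stock; the first replicate is given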
# T cruzi repl: inhibitors of intracellular T. cruzi growth, primary screen, luminescence, NIH3T3 host cells | T. cruzi beta-gal in NIH3T3, 90 h | inhibition, % (test concentration not listed) | 300,000 compounds, 1.4% hits | AID 1885, 2009;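 active = mean inhibition across valid replicates above about 55%, limit read from the data; inconclusive = mean below that limit but half or more replicates reach it; inactive = mean below it, under half of replicates reach it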;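 also: signal also drops with host cell toxicity which is not excluded here; 0% = plate median of DMSO wells and 100% = zero luminescence signal; higher percent means less beta-gal luminescence so fewer parasites; stock transfer was 50 nL into about 50 µL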
# ALR inh: inhibitors of human ALR sulfhydryl oxidase, primary screen, biochemical, H2O2 detection, HRP-luminol luminescence, single point. FAD-linked sulfhydryl oxidase ALR (Homo sapiens), P55789. purified ALR, DTT oxidation. inhibition, % (no concentration beside the values). 290,000 compounds, 3.8% hits. AID 485317, 2010;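 active = mean and each replicate at 75% or more; inconclusive = only one of the two met; inactive = neither met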;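 also: stock transfer was 7.5 nL into about 7.5 µL; 0% = neutral wells and 100% = wells with inactivated enzyme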
# Target sequence (P55789 whole entry, looked up): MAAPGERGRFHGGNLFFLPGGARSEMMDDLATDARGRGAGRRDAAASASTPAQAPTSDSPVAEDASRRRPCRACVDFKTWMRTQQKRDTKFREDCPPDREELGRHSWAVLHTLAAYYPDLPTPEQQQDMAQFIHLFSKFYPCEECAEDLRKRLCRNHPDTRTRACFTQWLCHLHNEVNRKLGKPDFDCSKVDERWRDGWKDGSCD
# rRNA inh HTS OD600: second read-out of rRNA inh HTS, no call of its own (marks repeat the call); OD600 change, %; measured here: OD600 growth;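 optical density of the mix in the first replicate; 0 = DMSO median and -100 = no signal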
# rRNA inh HTS RFP: second read-out of rRNA inh HTS, no call of its own (marks repeat the call); RFP signal change, %; measured here: RFP humanized mutant strains;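 first replicate; 0 = DMSO median and -100 = no signal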
# Numbers without * were called inactive; ? = inconclusive; nt = not tested or not shown. The list is partial; count on the stated rates, not on these rows.
SMILES,LANA-H2B inh,Beta cell apopt,B2AR ag,rRNA inh HTS,rRNA inh HTS OD600,rRNA inh HTS RFP,Bfl-1 A1 inh,Calb FLC,T cruzi repl,ALR inh
COc1ccc(CC(=O)Nc2ccc(-c3cn4ccc(C)cc4n3)cc2)cc1,4.2,13,11,nt,nt,nt,0.1,-7,-1,-1
S=C(NCC1CCCO1)NC1CC1 (stereo not drawn),-6.2,3,-5,26,17,-0.1,1.1,-2,-9,-1
COCCCNS(=O)(=O)c1ccc(SC)cc1,-5.1,-4,-1,nt,nt,nt,0.8,-12,-9,-8
NC(=O)CC(NC(=O)Cc1ccc(Br)cc1)c1ccc(N2CCCCCCC2)c([N+](=O)[O-])c1 (stereo not drawn),-2.0,-15,-4,-1,3,-4.8,-0.4,-16,18,nt
COc1ccc2c(C(=O)NCCCCO)c(-c3ccc(S(C)(=O)=O)cc3)sc2c1,-0.1,-7,-4,9,5,-3.9,-0.6,nt,nt,-5
O=P(Cc1cc[n+]([O-])cc1)(c1ccccc1)c1ccccc1,-3.1,-2,-3,14,6,2.0,0.8,-1,-17,-33
Cc1ccc(-n2ncc3c(Nc4cccc(C(=O)O)c4)ncnc32)cc1,7.3,-2,5,nt,nt,nt,-9.3,-1,5,94*
O=C(CN(c1ccc(F)cc1)S(=O)(=O)c1ccccc1)NC1CC2CCC1C2 (stereo not drawn),-1.7,3,-5,-9,-13,-0.7,-1.3,-11,6,3
COC(=O)c1ccc(N2C(=O)CC(SCCN)C2=O)cc1 (stereo not drawn),-2.3,-1,2,nt,nt,nt,-1.0,-4,-2,-4
CC(CNC(=O)c1cc(COc2c(F)cccc2F)on1)c1ccccc1 (stereo not drawn),-2.1,3,-11,-6,-8,0.0,1.6,7,7,-9
CC(C)(C)c1cc(C(=O)NN)n(Cc2ccc(Cl)cc2Cl)n1,5.4,37,14,0,16,6.5,-0.2,21,5,-5
CN1CC=C2C(C#N)=C(N)C(C#N)(C#N)[C@H](c3ccoc3)[C@H]2C1,18*,3,-1,nt,nt,nt,-0.1,9,39,-23
O=[N+]([O-])c1cccc(COc2ncnc3cc([N+](=O)[O-])ccc23)c1,0.9,14,9,7,1,-4.3,-0.1,20,64*,nt
CCOc1ccc(-c2csc(NC(=O)CSCC(=O)O)n2)c2ccccc12,-12,-6,-1,-38,-52,-12,1.5,-7,-19,44
O=C(COC(=O)COc1ccccc1)NCc1ccccc1,2.7,2,0,3,3,-3.3,0.5,5,-7,3
Cc1ccc(C(=O)Nc2nc(=O)n(C)s2)cc1,0.1,-5,2,nt,nt,nt,-5.4,-1,-9,12
CCCCNC(=O)C1CCN(C(=O)Nc2ccc(C)cc2)CC1,5.1,-3,6,nt,nt,nt,0.9,-6,-5,-16
CCc1ccccc1N(CC(=O)OC)S(C)(=O)=O,0.5,-3,14,nt,nt,nt,0.6,-3,3,-8
COc1cc(CCCN2C(N)=NC[C@H]2Cc2ccc(O)cc2)cc(OC)c1OC,-2.2,-17,-2,-3,-1,-1.2,0.4,2,-12,-20
COc1ccc(/C=C(/C#N)C(=O)Nc2ccc(O)cc2)cc1C(=O)O,-3.7,-6,-3,16,18,1.8,-0.2,0,-8,99*
Cc1ccc(SCC(=O)OCC(=O)Nc2ccc3[nH]c(=O)[nH]c3c2)cc1C,0.1,-2,1,6,3,-2.1,-0.3,3,-14,-7
CN1CCN(C(=O)c2ccccc2[N+](=O)[O-])CC1,-0.8,2,-4,22,15,3.8,-0.1,-8,-13,5
CCN1C(=S)SC(=O)C1=C1C=C(C)N(Cc2ccco2)C(C)=C1,3.0,7,-30,nt,nt,nt,-3.7,-2,17,99*
Cc1ccc(N(C)S(=O)(=O)c2cccc(C(=O)Nc3ccc(C)cn3)c2)cc1,3.5,5,-2,-6,-31,-3.3,-0.4,8,12,0
CN1CCC(N(C)C(=O)c2cc(S(=O)(=O)N(C)c3ccccc3)ccc2Cl)CC1,-0.4,-2,3,17,12,4.2,1.2,nt,nt,1
CC(=O)NC1(c2ccccc2)CCN(C(=O)N2CCOCC2)CC1,0.1,-5,-13,nt,nt,nt,0.0,-1,-7,-22
C[C@@]12C(=O)Nc3cc(Cl)ccc3C(=O)N1[C@H]1c3cc(Br)ccc3OC[C@@H]1[C@@H]2c1ccccc1,3.3,23,2,3,9,21,1.3,nt,nt,-1
C=CCn1c(SCC(=O)Nc2sc3c(c2C#N)CCC(C)C3)nc2cc(C(=O)O)ccc2c1=O (stereo not drawn),-2.4,3,3,6,13,-3.9,0.7,nt,nt,7
CC(=O)NC(CC(=O)O)c1ccc([N+](=O)[O-])cc1 (stereo not drawn),6.5,1,-1,8,5,-0.6,-0.1,-7,-6,-1
OC(COCc1ccc(Cl)cc1)CN1CCN(CC(O)COCc2ccc(Cl)cc2)CC1 (stereo not drawn),0.4,nt,16,nt,nt,nt,1.4,6,18,-5
COc1cc(/C=C/C(=O)OCC(=O)c2c[nH]c3ccccc23)ccc1OC(F)F,-3.3,-2,23,nt,nt,nt,-0.6,8,14,-6
COc1ccc(-c2cc3ncnc(Cl)c3s2)cc1,6.1,4,-1,5,2,-0.8,0.1,12,-15,-2
Cc1ccccc1NS(=O)(=O)c1ccc(C)c(C(=O)N2CCOCC2)c1,-12,nt,-1,7,14,0.7,-0.4,2,-5,6
CC(C)OCCCNC(=S)NNC(=O)c1ccc(Cl)c(Cl)c1,-6.9,2,3,13,10,1.5,0.8,7,-6,-1
CCC1CCCCN1CCCNC(=O)c1ccc2nc(N3CCC(C)CC3)sc2c1 (stereo not drawn),-1.1,-10,9,1,4,3.9,0.5,1,39,-4
O=C(CCN1CCN(Cc2ccccc2)CC1)NNC(=O)Cc1ccc(Cl)c(Cl)c1,2.1,3,1,nt,nt,nt,0.4,2,-6,0
Cc1ccc(-c2nnc(SCC(=O)Nc3ccc4c(c3)oc3ccccc34)n2C)c(Cl)c1,1.2,4,-12,nt,nt,nt,-0.2,5,13,-13
Cc1cc(C(=O)N(C)CC2CCCN(CCc3ccc(F)cc3)C2)c(C)o1 (stereo not drawn),6.5,6,-4,17,8,5.8,0.3,2,56*,-8
COc1cccc(N(C(=O)c2csnn2)C(C(=O)NC2CCCC2)c2ccccc2)c1 (stereo not drawn),-3.9,-7,10,11,9,1.1,0.3,-7,1,3
COc1ccc(-c2nc(CSCC(=O)N3CCN(C4CCCCC4)CC3)c(C)o2)cc1OC,3.9,2,2,2,-3,0.1,-5.8,-12,11,nt
COC(=O)c1c(C)oc2ccc(OC(=O)c3cccs3)cc12,-5.6,-2,-2,nt,nt,nt,0.6,-15,2,8
O=C(Nc1ccccc1)c1cc(S(=O)(=O)NCc2ccncc2)ccc1Cl,3.9,50,-6,-4,2,4.1,-0.3,-1,-38,-7
COc1cccc(C(=O)c2c[nH]c(C(=O)NCc3ccco3)c2)c1,3.3,0,-11,nt,nt,nt,?,2,-3,1
Cc1ccc(Oc2ccc(Cl)cc2NC(=O)c2cnccn2)cc1,3.1,2,6,nt,nt,nt,-1.1,-4,18,-1
CCN(CC)C(=O)CN(c1cccc(C(F)(F)F)c1)S(C)(=O)=O,5.4,-3,0,nt,nt,nt,-0.7,-9,-4,-3
O=S(=O)(NCC1CCCO1)c1cc(Cl)ccc1Cl (stereo not drawn),-4.8,nt,-8,8,7,-0.6,0.1,7,3,-1
CC1(N(O)/C=C2\C=CC=CC2=O)CCCCC1=O (stereo not drawn),3.5,-5,-2,3,1,-1.6,0.1,3,5,5
CCc1nnc(NC(=O)CSc2nnc(C)n2CC2CCCO2)s1 (stereo not drawn),1.3,-5,3,nt,nt,nt,0.4,2,-11,-32
Cc1cc(=O)oc2c(C)c(OCC(=O)NCCCn3ccnc3)ccc12,3.2,2,-4,2,-1,-1.5,-0.1,4,2,-2
O=C(CCC(=O)Nc1nnc(C2CCCCC2)s1)NCc1ccc(F)cc1,-8.6,-5,2,4,7,0.0,0.1,-2,3,0
Cc1ccccc1N1CCN(Cc2cccc(C(=O)O)c2)CC1,-3.6,nt,0,nt,nt,nt,0.5,-5,-1,-1
CC(C)CNS(=O)(=O)c1cc(C(=O)OCC(=O)c2ccc3c(c2)OCCO3)c(Cl)cc1Cl,-1.2,4,5,4,1,0.1,0.6,-8,6,20
Cc1ccc(SCc2cn3cccnc3n2)cc1,1.2,-11,3,nt,nt,nt,0.2,-12,-4,nt
O=C(CSc1nc(-c2ccccc2)cc(=O)[nH]1)Nc1ccccn1,0.8,-4,-5,nt,nt,nt,0.1,-2,-7,-6
Cc1cccc2cc(CN(C(=O)c3cccs3)c3ccccc3)c(=O)[nH]c12,3.9,nt,-4,nt,nt,nt,0.0,-5,20,1
COc1ccccc1CCN1CCCC(CN(C)C(=O)c2ccc3nc[nH]c3c2)C1 (stereo not drawn),4.5,0,-4,5,12,-0.1,-0.5,-15,39,-7
CCCN(CCC)S(=O)(=O)c1ccc(C(=O)NCc2ccc3c(c2)OCO3)cc1,1.1,4,3,-1,4,5.3,0.1,1,13,-6
CCCCN(CC)C(=O)C1CCC(=O)N(c2ccc(OC)cc2)C1c1ccc(OC)c(OC)c1 (stereo not drawn),-0.7,-2,-9,nt,nt,nt,0.3,nt,nt,-2
O=C(NNC(=S)Nc1ccccc1C(F)(F)F)c1ccc(Br)o1,-0.9,-1,3,-23,-26,-0.3,-0.6,3,-19,44
O=C(Nc1cc(Cl)ccc1-n1cncn1)c1ccc([N+](=O)[O-])s1,3.7,102*,-14,nt,nt,nt,0.4,40,69*,-18
# Additional compounds:
SMILES,LANA-H2B inh,Beta cell apopt,B2AR ag,rRNA inh HTS,rRNA inh HTS OD600,rRNA inh HTS RFP,Bfl-1 A1 inh,Calb FLC,T cruzi repl,ALR inh
O=C(C1=NN[C@@H]2C(=O)N(c3cccc(F)c3)C(=O)[C@H]12)C(c1ccccc1)c1ccccc1,-4.4,-2,-1,nt,nt,nt,0.1,1,-5,2
CCOC(=O)C(C)Sc1ncc(-c2ccccc2)cn1 (stereo not drawn),-1.6,nt,-5,-18,-20,0.6,-1.2,-2,1,-5
Cc1c(C)n(-c2ccccc2)c2ncnc(NCCCN(C)C)c12,-4.1,3,-6,12,8,0.5,-0.5,4,4,23
COc1cc(-c2nnc(SCC(=O)Nc3cc(C)on3)n2C)cc(OC)c1O,-6.4,2,2,nt,nt,nt,-0.1,-12,-19,50
Cn1cnc2cc(NS(=O)(=O)c3ccc(Br)cc3)ccc21,1.9,-2,7,nt,nt,nt,-0.6,1,-5,-4
Cc1ccc(COCC(CC(C)C)N2CCN(C(=O)c3cccc(C(F)(F)F)c3)CCC2=O)cc1 (stereo not drawn),0.4,9,1,-5,-17,1.1,-0.9,-9,7,-10

# Screening results deposited in PubChem by several laboratories.
